# High-throughput results as filed in PubChem.
# YopH inh: inhibitors of Yersinia enterocolitica YopH tyrosine phosphatase; fluorescence Ex485/Em525; inhibition, %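 (about 10 µM by stock and volumes)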; actives 0.16% (n = 140,000); AID 898;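 active = inhibition of 50% or more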;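 note: controls were vehicle for no effect and minimum signal wells for full effect; inactives centre near -20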
# Mtb bLac sens: beta-lactam sensitization of Mtb H37Rv; M. tuberculosis H37Rv growth with meropenem, percent inhibition; hits of this screen are not shown here; inhibition, % at 25 µM; actives 0.27% (n = 330,000); AID 434955;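 active = about 74% or more and at least 40 points above the plate without the antibiotic, then above 30% in a dose series; inconclusive = first-round hits that could not be retested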;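 note: growth measured after seven days incubation then overnight dye step; 0% = bacteria only wells and 100% = bacteria with antibiotic; twin plates without the antibiotic show which effects depend on it; some results filed as inactive read as strong as hits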
# Arbovirus inh: antivirals against arbovirus infection; arbovirus infection cell-based antiviral screen; inhibition, % at 10 µM; actives 0.37% (n = 200,000);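 active = inhibition from about 30%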;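 note: bluetongue infection of BSR cells; cell survival read as ATP light after 72 h; 0% = infected wells without compound and 100% = uninfected wells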
# RecA intein inh: inhibitors of M. tuberculosis RecA intein splicing | P9WHJ3 | cell-free RecA intein splicing, fluorescence | inhibition, %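 (about 9 µM by stock and volumes)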 | actives 0.75% (n = 290,000); in the data active = inhibition above about 30%; inconclusive = no clear call, values can overlap the other calls;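 note: 0% = vehicle wells and 100% = reference inhibitor control wells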
# Target sequence (P9WHJ3 whole entry, looked up): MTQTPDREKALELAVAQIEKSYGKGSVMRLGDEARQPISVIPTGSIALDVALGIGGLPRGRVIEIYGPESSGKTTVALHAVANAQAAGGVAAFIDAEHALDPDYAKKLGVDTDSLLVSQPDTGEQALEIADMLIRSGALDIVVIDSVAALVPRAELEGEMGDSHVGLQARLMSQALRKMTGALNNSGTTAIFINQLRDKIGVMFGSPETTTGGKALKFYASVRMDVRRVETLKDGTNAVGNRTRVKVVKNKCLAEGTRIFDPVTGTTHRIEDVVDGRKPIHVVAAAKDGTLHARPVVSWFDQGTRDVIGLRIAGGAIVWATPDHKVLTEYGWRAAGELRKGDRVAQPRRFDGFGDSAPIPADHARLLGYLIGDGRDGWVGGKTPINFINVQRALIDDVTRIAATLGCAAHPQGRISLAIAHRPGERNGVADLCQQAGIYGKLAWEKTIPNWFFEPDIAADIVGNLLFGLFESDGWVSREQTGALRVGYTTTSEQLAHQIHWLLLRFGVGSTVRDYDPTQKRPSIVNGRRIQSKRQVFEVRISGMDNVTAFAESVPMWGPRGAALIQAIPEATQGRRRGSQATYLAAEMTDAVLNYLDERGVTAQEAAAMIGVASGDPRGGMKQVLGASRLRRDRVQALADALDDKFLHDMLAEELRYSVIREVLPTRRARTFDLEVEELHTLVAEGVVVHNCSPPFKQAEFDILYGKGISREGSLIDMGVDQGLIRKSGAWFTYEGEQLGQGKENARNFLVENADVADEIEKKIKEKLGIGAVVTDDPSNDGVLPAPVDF
# Mtb growth: M. tuberculosis H37Rv growth inhibitors, H37Rv strain (AID 1626); inhibition, % at 10 µM; hits with a dose series show IC50 in µM; M. tuberculosis H37Rv growth inhibition; higher % means a stronger effect; actives 0.95% (n = 220,000);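 active = confirmed in a dose series; inconclusive = inhibition above 80% but not taken into the dose series; inactive = below 80% or under 30% at every dose of the series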;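 note: bacteria incubated seven days before Alamar blue readout; 0% = bacteria only wells and 100% = bacteria with antibiotic wells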
# Arbovirus inh repeat: recorded beside Arbovirus inh, whose call it bears; inhibition, %; measured here: 10K subset replicate screen; many hits read low in the repeat;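 first of two repeat runs on a subset; 0% = infected and 100% = uninfected wells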
# Numbers without * were called inactive; ? = inconclusive; / = no result given. The list is partial; rates above refer to the full screens.
SMILES,YopH inh,Mtb bLac sens,Arbovirus inh,RecA intein inh,Mtb growth,others
CCOC(=O)C1CCCN(C(=O)Cn2cnc3sc(C)c(S(=O)(=O)N4CCOCC4)c3c2=O)C1 (stereo unspecified),/,0,/,9.5,/,
C/C(=N\NC(=S)NC1CCCCC1)c1ccc(Cl)c(Cl)c1,/,-5,/,0.6,-7%,
C=CCN1C(=O)C(CC(=O)O)SC1=Nc1c(C)n(C)n(-c2ccccc2)c1=O (stereo unspecified),-27,1,0,0.6,-6%,
CCn1c(SCC(=O)Nc2ccccc2N2CCOCC2)nnc1-c1ccccc1,-10,-1,7,-1.6,-4%,
CSc1ccccc1NC(=O)C1=COCCO1,/,-14,/,-2.3,/,
CSCCC(NS(=O)(=O)c1ccc(C)cc1)C(=O)N1CCN(C(c2ccccc2)c2ccccc2)CC1 (stereo unspecified),/,-1,/,8.9,/,
COc1ccc(CN(CC(=O)NCCc2ccccc2)C(=O)CCC(=O)Nc2ccccn2)cc1,/,0,/,-1.5,/,
O=C(N/N=C/c1cccnc1)c1ccccc1OCc1cccc(Br)c1,/,11,0,-0.7,3%,
CC(C)Oc1ccccc1/C=N/NC(=O)c1ccc(F)cc1,-27,-4,0,-1.0,2%,
CC(C)C(NC(=O)CSc1ccc(Cl)cc1)C(C)C,-1,4,2,1.9,-5%,
O=S(=O)(Nc1ccc(Oc2ncccn2)c(Cl)c1)c1ccc(F)cc1,-26,-10,-3,-3.9,/,
COc1ccc(OC)c(-c2nc(C(N)=O)c3[nH]c(=O)n(-c4ccc(F)cc4)c3n2)c1,-37,4,5,-0.8,5%,Arbovirus inh repeat=-3
COc1ccc(-c2c(NCCc3ccccc3)c(=O)c2=O)cc1,/,4,/,-2.9,/,
O=C(Nc1ccc2c(c1)Cc1ccccc1-2)c1ccccc1F,/,-2,/,-2.1,/,
O=c1oc2ccccc2n1CCCCCn1c(=O)oc2ccccc21,1,-6,0,1.3,-5%,
O=C(CSc1ccc2nnc(-c3ccc(F)cc3)n2n1)N1CCOCC1,-24,-1,-4,-2.1,0%,
CC1CCCN(c2nc(N(C)c3ccccc3)nc(N)c2[N+](=O)[O-])C1 (stereo unspecified),/,26,/,9.6,2%,
COc1cccc(C2NC(=O)NC(C)=C2C(=O)Nc2cc(OC)ccc2OC)c1 (stereo unspecified),-23,7,9,4.0,-2%,Arbovirus inh repeat=2
Cc1noc(C)c1CSc1nc2ccccc2c(=O)n1-c1ccccc1,-54,26,-28,15,8%,
Cc1n[nH]c(=S)n(/N=C/c2cccs2)c1=O,/,-7,/,-3.6,-19%,
COc1ccc(/C=C/C(=O)OCC(=O)NCC2CCCO2)cc1 (stereo unspecified),-19,-8,-3,-0.1,3%,
CC(=O)Nc1ccc(S(=O)(=O)NCCC(=O)OCC(=O)c2ccccc2)cc1,/,-3,/,1.1,/,
Cc1n[nH]c(=O)c2c1nnn2Cc1ccc(F)cc1,/,?,/,-0.3,/,
Cc1nc2nc(SCC(=O)NCCCN3CCCC(C)C3)nn2c(C)c1Cc1ccccc1Cl (stereo unspecified),/,4,/,3.0,/,
O=C(CCCN1C(=O)c2ccccc2C1=O)Nc1nnc(C2CC2)s1,/,-9,7,1.2,-4%,
CC(=O)N=c1c(C#N)cc2c(=O)n3cccc(C)c3nc2n1Cc1ccco1,/,-1,/,-154,-7%,
Cc1c(C(=O)N/N=C/c2ccc(N(C)C)cc2)[nH]c2ccc(Cl)cc12,-37,4,-12,-5.5,4%,
N#CCN1CCN(c2ccc(C(F)(F)F)cc2)CC1,-35,2,1,-0.8,-2%,
CC(C)C(CO)N1CCN(Cc2ccccc2)CCC1=O (stereo unspecified),/,-11,/,-0.4,8%,
CCOC(=O)c1c(NC(=S)NC)sc2c1CC(C)(C)SC2,-14,4,-8,4.8,1%,
CCOC(=O)c1cc(S(=O)(=O)N2CCN(C(=O)OCC)CC2)cn1C,-22,-6,15,-0.4,-4%,
[O-][n+]1c2ccccc2cc2ccccc21,/,-2,/,-4.1,/,
Cc1ccccc1-c1nsc(SCC(=O)NCc2ccc3c(c2)OCO3)n1,-12,30,2,-0.5,10%,
CCN(CC)C(=O)Oc1ccc2c(=O)c(-c3ccc(OC)cc3)c(C)oc2c1,-54,98,-3,6.7,18%,
NC(=S)NN=C1C2CC3CC(C2)CC1C3,/,4,0,-2.2,3%,
COc1ccccc1NC(=O)CSC1=NC(=O)C(Cc2ccccc2)C(=O)N1 (stereo unspecified),/,-2,/,0.1,/,
O=C(CN1CCN(Cc2ccccc2)CC1)N/N=C/c1cccs1,/,-11,/,0.2,5%,
Cc1cc([N+](=O)[O-])nn1CCCC(=O)NC1CCCCC1,/,-8,1,-0.1,-6%,
Fc1ccc(COc2ccc(/C=N/n3cnnc3)cc2)cc1,-12,95,-17,7.4,-12%,
O=C(Nc1nnc(-c2ccco2)s1)C1CC1,-42,2,-3,-1.3,-3%,

# Pulled by compound from the entries so far (5):
SMILES,YopH inh,Mtb bLac sens,Arbovirus inh,RecA intein inh,Mtb growth,others
CCOC(=O)c1c(NC(=S)NC)sc2c1CC(C)(C)SC2,-14,4,-8,4.8,1%,
CCN(CC)C(=O)Oc1ccc2c(=O)c(-c3ccc(OC)cc3)c(C)oc2c1,-54,98,-3,6.7,18%,
Fc1ccc(COc2ccc(/C=N/n3cnnc3)cc2)cc1,-12,95,-17,7.4,-12%,
Cc1n[nH]c(=O)c2c1nnn2Cc1ccc(F)cc1,/,?,/,-0.3,/,
Cc1cc([N+](=O)[O-])nn1CCCC(=O)NC1CCCCC1,/,-8,1,-0.1,-6%,

# (cont.)
SMILES,YopH inh,Mtb bLac sens,Arbovirus inh,RecA intein inh,Mtb growth,others
CC(=O)c1ccc(OCC(O)CN(C)CCOc2ccc(Br)cc2)cc1 (stereo unspecified),/,3,/,1.6,/,
CCCC[C@H]1C2=C3[C@@H](CC(C(=O)OC)=C[C@@H](C(=O)OC)[C@H]3C(C)(C)C2=O)n2c(=O)n(-c3ccccc3)c(=O)n21,/,-5,/,1.9,-3%,
C[n+]1c(-c2ccccc2)sc([S-])c1-c1ccccc1,/,-7,/,3.4,/,
O=C1/C(=C\c2ccco2)NC(=S)N1c1ccccc1,/,-3,3,8.9,-6%,
Cc1ccc2c(C)cc[n+](CCCS(=O)(=O)[O-])c2c1,-7,-4,-1,4.1,0%,
CCCCn1c(C)c(C(=O)O)c2cc(OC)c3ccccc3c21,/,8,/,0.8,/,
O=C(NNC(=O)C1CC=CCC1)c1ccccc1Cl (stereo unspecified),/,1,/,-0.5,/,
CS(=O)(=O)Nc1ccc(C(=O)Nc2ccc(S(=O)(=O)N3CCCC3)cc2)cc1,/,8,6,-1.7,3%,
Cc1nn(CC(=O)NCC(C)c2ccccc2)c(=O)c2cc3occc3n12 (stereo unspecified),/,4,/,-0.6,/,
Cc1ccc(N(CC(=O)N2CCc3ccccc32)S(=O)(=O)c2cccs2)cc1,-6,4,0,2.9,2%,
COc1ccccc1-c1cc(C(=O)N2CCN(c3ccccc3OC)CC2)no1,-41,42,1,7.8,11%,
CCOc1ccc(Nc2ncnc3c2cnn3C)cc1,/,6,/,1.0,/,
CCOc1cc(NC(=S)Nc2cccc(OC)c2)c(OCC)cc1NC(=O)C1CC1,-41,12,1,-1.6,1%,
Cc1cn2c(-c3ccc(Cl)cc3)nnc2s1,-31,-6,10,-0.4,-7%,Arbovirus inh repeat=2
N#CCn1c(CCl)nc2ccccc2c1=O,/,94,6,38*,2%,
O=[N+]([O-])c1cccc(/C=N/Nc2cc(Cl)nc(-c3ccccc3)n2)c1,-22,6,3,1.2,-4%,
O=C(Nc1cccc(NC(=O)c2cccc([N+](=O)[O-])c2)n1)c1cccc([N+](=O)[O-])c1,/,6,/,-1.5,/,
Cc1ccc(NC(=O)c2nc[nH]c2C(=O)N2CCCCC2)c(C(=O)c2ccccc2)c1,-49,9,11,2.8,-15%,
COc1ccc(C2C(C(=O)N3CCOCC3)=C(C)NC3=C2C(=O)CC(C)(C)C3)c(OC)c1 (stereo unspecified),-31,2,2,-20,-5%,
CS(=O)(=O)N(Cc1ccccc1)c1ccc(C(=O)NCCSc2ccccn2)cc1,-1,-6,1,0.2,-1%,
COc1cc(/C=N/NC(=O)c2ccncc2)ccc1OC(=O)c1cccc(F)c1,/,98,/,3.3,/,
CC(C)(C)n1ncc2c(=O)n(CC(=O)NCc3ccccc3Cl)cnc21,-42,-7,1,-4.2,4%,
Nc1nc(CN2CCN(Cc3ccccc3)CC2)nc(N2CCCc3ccccc32)n1,/,81,2,1.1,?,
COc1ccccc1CN1C(=O)C(=O)N(Cc2cccc(C)c2)C1=O,/,3,-2,2.3,9%,
CC(C)c1ccc2[nH]c(O)c(N=NC(=O)c3cccc(S(=O)(=O)Nc4cccc(Cl)c4)c3)c2c1,/,1,/,-1.5,/,
CCOC(=O)C1(O)CC(C)=NN1C(=O)c1cccc(Br)c1 (stereo unspecified),/,1,-1,0.3,-4%,
Clc1ccccc1CSc1nnc(Cn2cnc3ccccc32)n1-c1ccccc1,-8,-2,-3,3.9,8%,
CCOC(=O)c1ccc(NC(=O)CSc2nnc(NC(=O)c3ccc(S(=O)(=O)N4CCOCC4)cc3)s2)cc1,-33,1,-3,-0.6,-8%,
Fc1ccc(Oc2cnns2)cc1,/,3,2,-2.4,-6%,
COc1ccc(N(CC(=O)Nc2cc(C)on2)S(=O)(=O)c2ccc(Cl)cc2)cc1,-1,2,-4,-9.6,4%,
CC1(C)CC(=O)c2sc(N3CCCCC3)nc2C1,-38,-6,5,-3.0,2%,
Cc1cc(=O)[nH]c(SCC(=O)Nc2ccccc2C#N)c1C#N,-4,3,3,-3.4,-5%,
CCc1nonc1NC(=O)c1oc2cc(C)c(C)cc2c1C,/,9,/,-0.4,/,
CN(C)CCCNC(=O)C(=O)NCC1CCCO1 (stereo unspecified),/,-6,3,1.6,-2%,
O=S(=O)(N1CCOCC1)N1CCOCC1,/,-5,/,-2.2,/,
Cc1cc(NC(=O)c2ccc(Cn3cc([N+](=O)[O-])cn3)o2)no1,/,0,/,-3.1,/,
COc1ccc(N2C(=O)C(F)(F)C2c2ccccc2F)cc1 (stereo unspecified),/,/,5,1.2,5.8µM*,
O=C(O)/C=C/c1ccc(S(=O)(=O)Nc2ccccc2C(=O)Nc2ccc(F)cc2)cc1,/,0,/,0.7,/,
CC(C)(C)NC(=O)C(c1ccc(O)cc1)N(C(=O)CCC(=O)Nc1ccccn1)c1ccc(F)cc1 (stereo unspecified),/,-3,/,-0.6,/,
CCCCOc1cc(=O)[nH]c(=O)[nH]1,-10,-4,9,-2.6,-15%,
O=C(NCc1ccco1)c1ccc(Cl)c(S(=O)(=O)N2CCOCC2)c1,-37,-23,7,-1.1,7%,
Cc1ccc2nc(/C(C#N)=C\c3ccc(N4CCOCC4)o3)[nH]c2c1,-17,4,-8,-2.7,8%,
CC1CCN(C(=O)CSc2nc3c(c(=O)n2C)SC(C)C3)CC1 (stereo unspecified),/,-5,/,-0.8,/,
COc1ccc(/C=N/N=C2/NC(=O)C(CC(=O)O)S2)cc1OS(=O)(=O)c1ccccc1 (stereo unspecified),/,0,-1,-0.8,1%,
CCOC(=O)N1CCN(C(=O)CCS(=O)(=O)c2ccc(Br)s2)CC1,-35,-13,13,1.4,-4%,
Cc1ccc(C(=O)NCCCNc2ccc(C(F)(F)F)cc2[N+](=O)[O-])cc1,-16,-4,3,-0.1,-4%,
CCN(CC)S(=O)(=O)c1ccc2oc(Nc3ccccc3)nc2c1,/,-1,/,-8.8,/,
O=C(N/N=C/c1cccs1)c1cccc(NC(=O)c2ccc(Cl)cc2)c1,-16,4,-22,-0.5,4%,
CC1Cc2ccccc2N1S(=O)(=O)c1c(N)n(C)c(=O)n(C)c1=O (stereo unspecified),/,-5,8,-0.2,-12%,
CCCc1nc(SCC(=O)O)c2sc(=S)n(-c3ccccc3)c2n1,/,-6,/,-9.1,/,
Cc1ccc2c(=O)cc(C(=O)NCCc3ccc(S(N)(=O)=O)cc3)oc2c1C,/,0,/,-1.9,/,
CC(C)(C)c1ccc(O)c(CN2CCN(c3ccccc3)CC2)c1,-28,8,10,-0.7,-9%,
COCCNC(=O)C1=NOC(Cn2cc(C#N)c(=O)n(C)c2=O)C1 (stereo unspecified),/,-2,-4,0.1,4%,
Cc1nc(-c2ccc([N+](=O)[O-])cc2)nc2[nH]ccc(=O)c12,/,6,/,-3.6,/,
O=C(CCCC(=O)OCC(Cl)=C(Cl)Cl)Nc1ccccc1F,-17,5,-2,-0.1,0%,

# Three structures already listed, arranged by heavy-atom count, smallest number first.
SMILES,YopH inh,Mtb bLac sens,Arbovirus inh,RecA intein inh,Mtb growth,others
O=C(Nc1ccc2c(c1)Cc1ccccc1-2)c1ccccc1F,/,-2,/,-2.1,/,
O=C(CSc1ccc2nnc(-c3ccc(F)cc3)n2n1)N1CCOCC1,-24,-1,-4,-2.1,0%,
Cc1ccc(NC(=O)c2nc[nH]c2C(=O)N2CCCCC2)c(C(=O)c2ccccc2)c1,-49,9,11,2.8,-15%,
